rRNA inh HTS: selective bacterial rRNA inhibition in E. coli; GFP signal change (wild-type ribosome), % (no concentration beside the values); AID 720706; E. coli WT GFP vs humanized-ribosome RFP mutants, fluorescence, 24 h; active compounds read low; DMSO median 0, no signal -100; 350,000 compounds, 1.6% hits;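 active = significant combined selectivity score with lowered wild-type GFP, culture density cut under 30%, mutant RFP and density less affected; inactive = any of these conditions unmet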; note: one replicate is shown; some compounds called inactive have numbers as strong as hits
Vif TR-FRET: inhibitors of Vif binding to APOBEC3G peptide, primary screen, biochemical, TR-FRET, GST-Vif 1-94, biotin-A3G peptide, dose response retest (AID 1117319); TR-FRET GST-Vif / biotin-A3G peptide binding; higher % means a stronger effect; test concentration not given here; strong numbers were not always called active; inhibition, %, or IC50 in µM where a hit was titrated; 260,000 compounds, 0.57% hits;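 active = above the screen mean plus three standard deviations and confirmed in dose response; inconclusive = results disagree or hit not tested in dose response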;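 note: Vif residues 1-94 fused to GST binding biotinylated APOBEC3G peptide 110-148; 0% = full assay without inhibitor and 100% = GST in place of GST-Vif; retest series ran down from 100 µM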
HNF4A DNA FP: change in binding of human HNF4 alpha to DNA; HNF4a-FITC DNA binding, fluorescence polarization, 1 h; activity change, % at 10 µM; 360,000 compounds, 0.3% hits; in the data active = activity change above about 30%, passing the limit was not always enough;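 note: controls were the assay level and a saturating level of protein; the project sought stronger binding though the title names inhibitors; some compounds called inactive have numbers as strong as hits; positive values seem to mean higher polarization but the record does not say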
Target sequence (P41235 whole entry, looked up): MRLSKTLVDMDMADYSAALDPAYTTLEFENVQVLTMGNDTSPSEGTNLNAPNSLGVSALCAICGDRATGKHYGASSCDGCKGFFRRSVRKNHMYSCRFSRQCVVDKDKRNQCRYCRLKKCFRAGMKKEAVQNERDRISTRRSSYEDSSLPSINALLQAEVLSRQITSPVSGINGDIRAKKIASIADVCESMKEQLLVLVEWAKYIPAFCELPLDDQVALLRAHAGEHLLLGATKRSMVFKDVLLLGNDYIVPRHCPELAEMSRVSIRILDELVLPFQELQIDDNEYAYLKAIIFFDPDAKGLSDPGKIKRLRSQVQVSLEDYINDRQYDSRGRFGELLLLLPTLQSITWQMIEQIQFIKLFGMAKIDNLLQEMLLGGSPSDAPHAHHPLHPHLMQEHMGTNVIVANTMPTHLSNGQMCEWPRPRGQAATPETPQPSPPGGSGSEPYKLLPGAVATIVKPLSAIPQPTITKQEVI
FGF22 binding: shifts melting point of recombinant human FGF22. Q9HCT0. recombinant FGF22 thermal shift, SYPRO orange fluorescence; percent of sucrose octasulfate shift, DMSO zero. calls only at 9.99 µM. 340,000 compounds, 1.5% hits;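 active = melting point raised past a set limit in the mean and every replicate; inconclusive = no clear call; three in four hits are not shown here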
ALR H2O2 inh: human ALR oxidase inhibition via reduced H2O2 | 290,000 compounds, 3.8% hits | inhibition, % (no concentration beside the values) | purified ALR, DTT oxidation, H2O2 HRP-luminol luminescence | P55789 | AID 485317;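 active = mean and each replicate at 75% or more; inconclusive = only one of the two met; inactive = neither met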;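 note: stock transfer was 7.5 nL into about 7.5 µL; 0% = neutral wells and 100% = wells with inactivated enzyme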
MLL AF4-AF9 inh: MLL-AF4/AF9 protein interaction inhibition. P42568. inhibition, % at 10 µM. 350,000 compounds, 0.47% hits. AlphaScreen, biotin-AF4 peptide binding to FLAG-AF9;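 active = every replicate reaching a set inhibition limit, whatever the replicate mean, cut at about 25% in these data; inconclusive = mean inhibition reaches that limit but some replicates miss it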;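 note: 0% = plate neutral control median and 100% = total signal loss; the record names both 10 and 1 µM as test concentration; the first replicate is given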
Target sequence (P42568 whole entry, looked up): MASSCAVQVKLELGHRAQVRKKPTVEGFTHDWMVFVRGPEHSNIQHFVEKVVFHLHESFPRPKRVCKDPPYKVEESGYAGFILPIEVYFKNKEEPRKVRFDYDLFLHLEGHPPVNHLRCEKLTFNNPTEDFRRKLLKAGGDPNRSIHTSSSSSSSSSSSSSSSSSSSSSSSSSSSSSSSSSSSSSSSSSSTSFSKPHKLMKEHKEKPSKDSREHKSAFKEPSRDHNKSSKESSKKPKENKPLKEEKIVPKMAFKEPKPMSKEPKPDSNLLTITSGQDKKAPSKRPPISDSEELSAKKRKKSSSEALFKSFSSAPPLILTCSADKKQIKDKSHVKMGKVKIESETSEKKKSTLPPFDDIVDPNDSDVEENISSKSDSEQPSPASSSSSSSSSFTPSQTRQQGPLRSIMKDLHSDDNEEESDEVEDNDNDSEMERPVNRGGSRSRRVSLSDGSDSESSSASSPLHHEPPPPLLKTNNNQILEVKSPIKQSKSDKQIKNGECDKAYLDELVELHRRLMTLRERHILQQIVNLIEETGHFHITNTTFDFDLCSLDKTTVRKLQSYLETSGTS
E coli growth: blocks Escherichia coli growth | 330,000 compounds, 0.21% hits | OD600 absorbance (no concentration beside the values) | OD600, 23 h; active compounds read low;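 active = OD600 absorbance below the run mean of sample wells minus 3.6 SD, in any replicate, cut at about 0.56 in these data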;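 note: stock transfer was 300 nL into about 60 µL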
rRNA inh HTS OD600: further read-out of rRNA inh HTS, marked with its call; OD600 change, %; measured here: OD600 growth;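 optical density of the mix in the first replicate; 0 = DMSO median and -100 = no signal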
rRNA inh HTS RFP: recorded beside rRNA inh HTS, whose call it bears; RFP signal change, %; measured here: RFP humanized mutant strains;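 first replicate; 0 = DMSO median and -100 = no signal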
The depositor's hits bear a star; i = inactive; ? = inconclusive; / = not tested or not shown; + = active, no number. The list is partial; the hit share may differ from the screen's.

SMILES | rRNA inh HTS | rRNA inh HTS OD600 | rRNA inh HTS RFP | Vif TR-FRET | HNF4A DNA FP | FGF22 binding | ALR H2O2 inh | MLL AF4-AF9 inh | E coli growth
Cc1ccccc1-c1ccc2c(c1)O[C@H](CN(C)Cc1ccncc1)[C@@H](C)CN([C@H](C)CO)S2(=O)=O | -18 | -33 | 5.2 | / | / | i | / | 6.5 | /
CCOc1ccccc1NC(=O)CNC(=O)N1CC(=O)Nc2ccccc21 | 5 | 18 | 1.0 | -4% | 2.5 | i | -1 | 0.7 | 0.71
O=C(NCCN1CCOCC1)c1ccc(NS(=O)(=O)c2ccccc2)cc1 | 8 | 11 | -1.3 | / | -1.2 | i | -19 | -0.1 | 0.69
CCOc1cc(N2CCOCC2)c(OCC)cc1NC(=O)CN1C(=O)C2CC=CCC2C1=O (stereo not drawn) | 4 | -1 | -3.3 | 5% | 4.7 | i | 14 | 0.6 | 0.69
COCCCN1C(=O)c2ccc(C(=O)NCCc3ccccc3)cc2C1=O | 9 | 10 | 0.9 | -1% | 0.1 | i | / | 3.8 | 0.63
O=C(OCC(=O)N1CCCc2ccccc21)c1c(F)cccc1F | -8 | -13 | -0.8 | / | 1.7 | i | / | -3.4 | 0.69
CCOCCn1c(SCc2c(F)cccc2Cl)nc2c1c(=O)[nH]c(=O)n2C | / | / | / | 3% | 1.0 | / | -17 | / | 0.65
CC(C)N(C[C@@H]1[C@H](c2ccccc2)[C@@H](CO)N1S(C)(=O)=O)C(=O)CN(C)C | 2 | 5 | -0.1 | / | / | i | / | -2.7 | /
CC(C)NC(=O)N(C)C[C@H]1OCCCC[C@@H](C)Oc2ccc(NC(=O)CCCN(C)C)cc2C(=O)N([C@@H](C)CO)C[C@H]1C | 4 | 13 | -0.1 | / | / | i | / | -2.1 | /
CCCNCc1cc(OCC)c(OCC(N)=O)cc1Br | / | / | / | 3% | 1.2 | / | -5 | / | 0.75
COc1ccc(CC(=O)N/N=C/c2sccc2C)cc1 | 4 | 10 | 0.6 | -3% | 7.1 | i | 1 | 3.6 | /
COc1ccc(S(=O)(=O)Nc2ccc3c(c2)CC(=O)N([C@H](C)CO)C[C@H](C)[C@@H](CN(C)Cc2ccc(-c4ccccc4)cc2)O3)cc1 | 2 | 12 | 3.2 | / | / | i | / | 0.1 | /

The closing 2 records of the part above open the next one:
SMILES | rRNA inh HTS | rRNA inh HTS OD600 | rRNA inh HTS RFP | Vif TR-FRET | HNF4A DNA FP | FGF22 binding | ALR H2O2 inh | MLL AF4-AF9 inh | E coli growth
COc1ccc(CC(=O)N/N=C/c2sccc2C)cc1 | 4 | 10 | 0.6 | -3% | 7.1 | i | 1 | 3.6 | /
COc1ccc(S(=O)(=O)Nc2ccc3c(c2)CC(=O)N([C@H](C)CO)C[C@H](C)[C@@H](CN(C)Cc2ccc(-c4ccccc4)cc2)O3)cc1 | 2 | 12 | 3.2 | / | / | i | / | 0.1 | /
CCn1c(CNC(=O)c2ccc3c(c2)OCO3)nnc1SCC(=O)Nc1cc(C)ccc1OC | / | / | / | 1% | -1.9 | / | 0 | / | 0.8
COCCn1c(=NC(=O)/C=C/c2cccs2)sc2cc(NC(C)=O)ccc21 | / | / | / | -3% | 3.0 | / | / | / | 0.64
CCCNC(=O)N(C)C[C@@H]1Oc2cc(C#C[C@@H](C)O)ccc2S(=O)(=O)N([C@@H](C)CO)C[C@@H]1C | 3 | 3 | 3.1 | / | / | i | / | 1.9 | /
NC(=O)Cn1c(=O)n(CCC(=O)NCCSCc2ccccc2)c(=O)c2ccccc21 | 6 | 2 | 4.2 | 9% | -4.6 | i | 0 | -5.3 | 0.65
Cc1c(C(=O)NCc2ccccc2C(F)(F)F)sc(=O)n1Cc1ccc(F)cc1 | -8 | -6 | -7.5 | / | 3.4 | i | / | 8.7 | /
Cc1ccc(-c2ccc3c(c2)O[C@@H](CN(C)C)[C@@H](C)CN([C@@H](C)CO)S3(=O)=O)cc1 | 8 | 4 | 1.3 | / | / | i | / | -9.2 | /
Cc1cnc(-c2nc3ccccc3n2C(C(=O)NC(C)(C)C)c2ccccc2)cn1 (stereo not drawn) | 9 | 16 | 2.2 | / | 1.7 | i | / | / | /
CC1=CN2CC(O)CN=C2C=C1 (stereo not drawn) | / | / | / | -3% | -0.9 | / | -11 | / | 0.69
COc1cc(OC)cc(C(=O)NC2CCN(Cc3nnnn3Cc3cccs3)CC2)c1 | / | / | / | 8% | -1.9 | / | 0 | / | 0.72
CCN1C(=O)[C@@H]2[C@@H](c3ccc(-c4ccc5c(c4)OCO5)c(OC)c3)N3CCC[C@@]3(C(=O)OC)[C@@H]2C1=O | 3 | 4 | -3.6 | / | 2.9 | i | -20 | 6.3 | /
O=C(O/N=C(/c1ccccc1)c1ccncc1)c1ccccc1[N+](=O)[O-] | 9 | -2 | 2.5 | 0% | 0.7 | i | / | 1.0 | /
COc1ccc2nc(SCC(=O)N(C)C3CCCCC3)c(C#N)cc2c1 | / | / | / | 23% | -2.1 | / | / | / | 0.71
O=C(c1ccc(-n2cccc2)cc1)N1CCN(Cc2ccccc2)CC1 | / | / | / | -2% | -1.4 | / | -13 | / | 0.72
Cc1ccc(CC(=O)Nc2ccc([N+](=O)[O-])cc2C)cc1 | -2 | 5 | 5.4 | ? | -0.9 | i | -1 | -7.4 | 0.71
C=CCN1C(=O)C2C(C(=O)NC)C3(C)C=CC2(O3)C1C(=O)NCc1ccc(OC)cc1 (stereo not drawn) | / | / | / | -1% | -0.2 | / | 4 | / | 0.69
CCCN(CC(=O)Nc1ccc(Cl)cc1Cl)C(=O)/C=C/c1cc(OC)ccc1OC | / | / | / | 2% | -0.9 | / | 0 | / | 0.74
CCOc1ccc(N(CC(=O)Nc2ccccc2OC)S(C)(=O)=O)cc1 | -1 | -1 | 3.3 | / | -1.9 | i | -9 | 0.3 | 0.72
COc1ccccc1N1CCN(C(=O)CN(C)S(=O)(=O)c2ccc3c(c2)c(=O)n(C)c(=O)n3C)CC1 | -8 | -11 | 0.0 | -3% | -6.5 | i | 50 | 4.3 | 0.66
O=C(O)c1cccc(Cn2c(Cl)c(/C=N/NC(=O)c3ccccc3)sc2=O)c1 | / | / | / | 0% | 2.2 | / | 70 | / | /
CCN(c1ccc(OC)cc1)S(=O)(=O)c1cc(-c2cc(C)no2)ccc1OC | -31* | -16* | 0.9* | / | 2.1 | i | -21 | -5.4 | 0.69
Cc1cc(C)cc(NC(=S)/N=C(\N)Nc2nc(C)c3ccccc3n2)c1 | -5 | -10 | 4.4 | / | 3.6 | i | / | 2.9 | 0.67
Cc1ccc(-c2noc(CSc3nnnn3C3CCCCC3)n2)cc1 | -18 | -12 | -4.8 | 15% | 3.5 | i | 4 | 6.7 | 0.71
O=C(N[C@H]1C=C[C@@H](CC(=O)N2CCN(c3ccccc3)CC2)O[C@H]1CO)c1ccncc1 | 3 | -2 | 0.6 | / | / | i | / | -12 | /
COc1ccc(NC(=O)Nc2ccc3c(c2)C(=O)N([C@H](C)CO)C[C@H](C)[C@H](CN(C)C(=O)Nc2cccc4ccccc24)OCCCC[C@H](C)O3)cc1 | 3 | 9 | 1.3 | / | / | i | / | -0.6 | /
O=c1c2c3c(sc2nc2n1CCCCC2)C(O)CCC3 (stereo not drawn) | 6 | 4 | 1.7 | / | 1.5 | i | -6 | -1.2 | 0.69
C[C@H]1CCCCO[C@H](CN(C)C(=O)Cc2ccccc2)[C@@H](C)CN([C@@H](C)CO)C(=O)c2cc(NC(=O)Nc3ccc4c(c3)OCO4)ccc2O1 | 0 | 3 | 0.3 | / | / | i | / | 4.4 | /
O=C(c1cnccn1)N1CCCC(N2CCN(c3cccc(Cl)c3)CC2)C1 (stereo not drawn) | 1 | 11 | 0.2 | / | -0.7 | i | 20 | -1.1 | 0.71
Cc1ccc(C(=O)OCCN(C)Cc2ccccc2)cc1 | 3 | -3 | 2.0 | -4% | -0.6 | i | -2 | 1.5 | 0.68
COc1ccc(/C=N\N2CCN(Cc3ccccc3Cl)CC2)cc1 | 1 | 0 | -2.6 | 3% | -0.8 | i | -18 | 15 | /
CCCCN1C(=O)C2(NNc3ccccc3O2)c2ccccc21 (stereo not drawn) | / | / | / | ? | 69* | / | -8 | / | 0.66
CCCCCCn1cc(C(=O)OCC)c(=O)c2cc(F)c(F)cc21 | -16 | -1 | -1.3 | -4% | 1.3 | i | 4 | -2.6 | 0.7
C#CCSc1nnc(-c2ccc(C)cc2)o1 | / | / | / | ? | -1.0 | / | -7 | / | 0.67
CN1CCN(S(=O)(=O)NC[C@H]2O[C@@H](n3cnc4c(N)ncnc43)[C@H](O)[C@@H]2O)CC1 | 18 | 18 | 1.4 | 15% | -3.7 | i | / | 0.9 | 0.68
O=C(CSc1ccccn1)Nc1ccc(NC(=O)CSc2ccccn2)cc1 | 9 | 9 | 1.0 | -15% | -1.6 | i | -20 | -0.9 | 0.7
COc1cccc(C(=O)NC2=NCCS2)c1 | / | / | / | ? | 3.3 | / | -16 | / | 0.69
COc1ccc(CCN(C)C2CCCN(C(=O)c3ccnn3C)C2)cc1OC (stereo not drawn) | 17 | 14 | 1.6 | / | -2.6 | i | -5 | -0.2 | 0.67
Cc1ccc(S(=O)(=O)NCc2cn3ccccc3n2)c(C)c1 | 2 | 8 | 1.1 | / | -2.2 | i | -5 | -13 | 0.68
COc1ccc(Br)cc1/C=N/NC(=O)C[n+]1ccccc1 | 5 | 18 | -2.4 | 1% | 1.3 | i | 0 | -0.1 | /
O=S(=O)(Nc1nc2ccc(S(=O)(=O)N3CCCC3)cc2s1)c1ccc(F)cc1 | / | / | / | -2% | 7.0 | / | -7 | / | 0.7
CC(=O)Nc1ccc(C2NC(=O)CCC2[N+](=O)[O-])cc1 (stereo not drawn) | 11 | 10 | -1.1 | 1% | -0.9 | i | -1 | -0.2 | 0.66
CCOCCCNc1nc2ccccc2[nH]1 | / | / | / | 0% | -3.8 | / | 13 | / | 0.7
COc1ccc(CN(C)Cc2c(O)ccc3cc(Br)ccc23)cc1OC | -23* | -17* | 1.6* | / | 2.9 | + | -111 | 5.6 | 0.62
Clc1ccc(CSc2ccc(-c3cccnc3)nn2)cc1 | -3 | -3 | 4.6 | / | 1.0 | i | -2 | -2.7 | 0.65
CC(=O)c1sc2nsc(SCCN3CCOCC3)c2c1N | / | / | / | -5% | 6.9 | i | ? | -1.0 | 0.63
O=C(NCC[C@@H]1CC[C@@H](NS(=O)(=O)c2ccccc2F)[C@H](CO)O1)c1ccc(F)cc1 | -4 | -8 | 0.5 | / | / | i | / | 1.1 | /
CC1(C)CC(=O)C2=C(C1)NC1=C(C(=O)c3ccccc31)C2c1cc([N+](=O)[O-])ccc1O (stereo not drawn) | 8 | -2 | -5.5 | -4% | 0.8 | i | -1 | -0.7 | 0.66
O=C1NC(Cc2ccc(O)cc2)c2nc3ccc(Cl)cc3c(=O)n2-c2cc(Cl)ccc21 (stereo not drawn) | -12 | -8 | -12 | / | / | i | -2 | 6.0 | /
Cc1ccc(C(=O)NC2CC(C)(C)NC(C)(C)C2)c(C)c1 | / | / | / | 2% | -8.0 | / | -4 | / | 0.72
CCCN1CCN(S(=O)(=O)c2cc3c(cc2C)NC(=O)CO3)CC1 | 2 | 10 | -4.3 | / | 0.8 | i | 0 | 11 | 0.81
Fc1cccc(F)c1/C=N/NC(=S)Nc1cccnc1 | 18 | 8 | 0.5 | 11% | 3.2 | i | -4 | 0.4 | /

Source: PubChem (several laboratories)
